# Screens (PubChem BioAssay)
# KCNQ2 block – KCNQ2 potassium channel inhibitors, primary screen, cell-based, CHO-K1, FluxOR thallium flux, B-score (AID 2156). 1.1% of 310,000 active. O88943. 20 min; stronger effect = lower value; only compounds with negative scores are shown here; some inactives read as strong as hits. B-score at 10 µM;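 active = fluorescence ratio B-score at most minus 3 library SDs, with starting brightness B-score within 2 library SDs, cut at about -5.5 in these data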
# Target sequence (O88943 whole entry, looked up): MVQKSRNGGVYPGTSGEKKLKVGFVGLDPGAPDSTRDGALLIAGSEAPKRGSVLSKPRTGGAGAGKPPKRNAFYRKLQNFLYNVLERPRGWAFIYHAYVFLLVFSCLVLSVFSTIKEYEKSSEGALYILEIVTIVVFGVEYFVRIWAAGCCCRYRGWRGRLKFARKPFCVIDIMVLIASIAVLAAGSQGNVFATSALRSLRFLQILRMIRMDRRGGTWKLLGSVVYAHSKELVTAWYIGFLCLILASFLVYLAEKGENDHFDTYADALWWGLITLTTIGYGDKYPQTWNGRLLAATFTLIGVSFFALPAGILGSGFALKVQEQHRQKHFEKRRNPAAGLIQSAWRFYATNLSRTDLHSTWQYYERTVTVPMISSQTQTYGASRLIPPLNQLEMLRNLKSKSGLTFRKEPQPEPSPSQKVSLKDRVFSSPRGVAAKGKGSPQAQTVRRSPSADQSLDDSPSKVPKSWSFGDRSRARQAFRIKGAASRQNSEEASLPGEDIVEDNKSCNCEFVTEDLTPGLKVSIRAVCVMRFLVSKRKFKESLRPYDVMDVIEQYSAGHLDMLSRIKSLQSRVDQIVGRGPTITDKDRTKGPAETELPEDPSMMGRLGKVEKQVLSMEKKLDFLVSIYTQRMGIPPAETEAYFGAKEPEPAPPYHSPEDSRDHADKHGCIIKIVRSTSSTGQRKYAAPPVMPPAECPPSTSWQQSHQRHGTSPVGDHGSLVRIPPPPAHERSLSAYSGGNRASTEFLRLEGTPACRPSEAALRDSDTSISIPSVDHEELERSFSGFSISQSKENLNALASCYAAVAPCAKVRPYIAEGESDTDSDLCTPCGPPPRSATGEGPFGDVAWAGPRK
# KCNQ2 block baseline – second read-out of KCNQ2 block, no call of its own (marks repeat the call); B-score; measured here: initial fluorescence intensity artifact check;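 brightness before thallium and not channel activity; 0 = typical well and far values either way flag optical interference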
# The depositor's hits bear a star; i = inactive. Some of the compounds tested; the hit share may differ from the screen's.
SMILES,KCNQ2 block,KCNQ2 block baseline
Cc1cc(C)c2nc(N(CCN(C)C)C(=O)c3ccc(S(=O)(=O)N(C)CC4CCCO4)cc3)sc2c1 (stereo not given),i,0.02
O=C(NCCOC(=O)c1c(F)cccc1Cl)c1c(F)cccc1Cl,i,-0.07
CCCC(=O)Nc1sc2c(c1C(=O)OCC)CC(C)(C)OC2,i,-0.07
N#C/C(=N\Nc1ccccc1[N+](=O)[O-])C(=N)N1CCCCC1,i,1.06
CCc1nc(SCC(=O)Nc2nnc(CC)s2)c2c(C)c(C)sc2n1,i,-2.71
CC(C)(C)n1nc2c(c1NC(=O)c1ccc(S(=O)(=O)N3CCCC3)cc1)CS(=O)C2 (stereo not given),i,0.21
COc1ccccc1C(=O)Nc1nc(-c2cccs2)c(NC(C)=O)s1,i,2.28
COc1ccc(C2=NN(C(=O)CSc3nc(=O)n4ccc(C)cc4n3)C(c3ccc(C)cc3)C2)cc1 (stereo not given),i,-0.25
O/C(=C\Sc1nnc(Cc2ccccc2)o1)c1ccc(Br)cc1,i,-1.15
Cc1ccc(-c2nc(C=Nc3cccc(C)c3)c(O)o2)cc1,i,-0.32

# Brought forward from above: five entries, followed by the next part.
SMILES,KCNQ2 block,KCNQ2 block baseline
CC(C)(C)n1nc2c(c1NC(=O)c1ccc(S(=O)(=O)N3CCCC3)cc1)CS(=O)C2 (stereo not given),i,0.21
COc1ccccc1C(=O)Nc1nc(-c2cccs2)c(NC(C)=O)s1,i,2.28
COc1ccc(C2=NN(C(=O)CSc3nc(=O)n4ccc(C)cc4n3)C(c3ccc(C)cc3)C2)cc1 (stereo not given),i,-0.25
O/C(=C\Sc1nnc(Cc2ccccc2)o1)c1ccc(Br)cc1,i,-1.15
Cc1ccc(-c2nc(C=Nc3cccc(C)c3)c(O)o2)cc1,i,-0.32
Cc1ccc(CN2C(=O)CCC2C(=O)NCCCN2CCCCC2C)cc1 (stereo not given),i,0.69
COc1ccc(CCNC(=O)c2cc(Cl)nc3ccccc23)cc1,i,0.03
Cc1ccc(CNC(=O)CSc2ncn[nH]2)cc1,i,0.99
O=C(CCn1cnnn1)NC1CCCN(Cc2ccccc2F)C1 (stereo not given),i,1.3
O=C(NCc1ccco1)c1cccc(S(=O)(=O)N2CCN(Cc3ccccc3)CC2)c1,i,2.42
Cc1cccc(OCCCCc2c(C)n[nH]c2C)c1,i,-1.42
O=C(Nc1ccc(S(=O)(=O)Nc2nccc(C3Cc4ccccc4C(=O)O3)n2)cc1)c1ccccc1 (stereo not given),i,0.3
c1ccc(-c2nnc3n2N=C(c2ccc4c(c2)OCO4)CS3)nc1,i,-0.08
S=c1[nH]nc(COc2ccccc2)n1/N=C/c1ccc(Cl)cc1Cl,i,-0.33
Cc1cccc(N2CCN(C3=NC(=O)/C(=C\c4cn[nH]c4-c4ccccc4)S3)CC2)c1,i,2.16
O=C(CCCN1C(=O)c2ccccc2C1=O)NCCN1C(=O)S/C(=C\c2cccs2)C1=O,i,0.12
O=C(O)c1cccc(S(=O)(=O)Nc2cc(Cl)ccc2Cl)c1,i,0.01
COc1ccc2cc(C(=O)C3CCCN(Cc4ccccn4)C3)ccc2c1 (stereo not given),i,1.18
C=CCN(Cc1ccc(OC)c(OC)c1)C(=O)c1cc2cc(F)ccc2[nH]1,i,1.22
O=C(/C=C/c1cccs1)Nc1ccc(N2CCOCC2)c(S(=O)(=O)Nc2ccccc2Cl)c1,i,-1.06
CC(=O)SC(C[N+](=O)[O-])c1cn(C(C)=O)c2ccccc12 (stereo not given),-5.57*,0.96*
CCc1ccccc1N(CC(=O)NC(C)C)C(=O)CCC(=O)Nc1nccs1,i,1.54
CCCOc1cccc(CN2CCCCC2c2cccnc2)c1 (stereo not given),i,1.46
Cc1nc(-c2cccs2)sc1C(=O)NN,i,-1.89
COc1ccc(-c2nc3c(n2O)CCc2c-3no[n+]2[O-])cc1,i,2.55

# Brought forward from above: two entries, followed by the next part.
SMILES,KCNQ2 block,KCNQ2 block baseline
Cc1nc(-c2cccs2)sc1C(=O)NN,i,-1.89
COc1ccc(-c2nc3c(n2O)CCc2c-3no[n+]2[O-])cc1,i,2.55
COc1ccc2c(CC(=O)NCC3CCC(C(=O)O)CC3)cc(=O)oc2c1 (stereo not given),i,1.68
c1ccc2c(c1)CCc1ccccc1C2=C1CCNCC1,i,-0.01
CCOC(=O)C(CC)Sc1nnc2c3cc(C)ccc3n(C)c2n1 (stereo not given),i,0.25
CC1(CCC(=O)N2CCCC(N3CCN(c4cccc(C(F)(F)F)c4)CC3)C2)CC1 (stereo not given),i,-2.8
COc1ccc(N2CN=C3SCC(=O)N3C2)cc1,i,-1.24
CC(=O)N(OCc1ccc(OC(C)C)c(Cl)c1)C(C)=O,i,-2.07
CC1CCN(C(=O)CC#N)CC1,i,0.81
Cn1cccc1Cc1nnc(SCC(=O)Nc2ccc3c(c2)OCCO3)n1-c1ccc(F)cc1,i,0.69
O=C(NCCS(=O)(=O)N1CCN(c2ccccc2F)CC1)c1ccc(Cl)cc1,i,-1.21
O=c1c2c3c(sc2nc2n1CCCCC2)CCCCC3,i,-0.51
CCCCc1nnc(NC(=O)CN2C(=O)NC3(CCCCC3)C2=O)s1,i,0.06
COc1ccc(OC)c(/C=C2\NC(=O)NC2=O)c1,i,2.44
COCCNC(=O)Cn1c(=O)n(Cc2ccc(C(=O)NCCc3ccc(OC)c(OC)c3)cc2)c(=O)c2ccccc21,i,3.5
COc1ccc(-c2noc(C3CCCN(C(=O)c4cccc(F)c4)C3)n2)cc1 (stereo not given),i,-0.96
O=c1ccc2cc(S(=O)(=O)N3CCN(c4ccccc4F)CC3)ccc2o1,i,-0.16
COC(=O)CCCC1=CC2=CC(=O)C(C)(OC(=O)c3cccs3)C(=O)C2=CN1c1ccccc1 (stereo not given),i,1.81
Cc1nc2cc(NC(=O)Nc3ccccc3Cl)ccc2n1C,i,0.61
CC(=O)c1cccc(NC(=O)CN2C(=O)c3cccnc3Oc3ccc(Cl)cc32)c1,i,2.18
N#C/C(=C\c1ccc(F)cc1)C(=O)NC1CCS(=O)(=O)C1 (stereo not given),i,-0.45
Cc1ccc(OCC(=O)Nc2cnn(CCCC(=O)O)c2)c([N+](=O)[O-])c1,i,-0.19
Cn1ncc(C#N)c1NC(=O)C1CC(c2ccc(Cl)cc2)=NO1 (stereo not given),i,-2.14
Cn1cc(CN2CCCC(CNS(=O)(=O)c3cccc4cccnc34)C2)cn1 (stereo not given),i,-0.01
Cc1ccc(S(=O)(=O)Nc2nc3ccc(S(=O)(=O)N4CCCC4)cc3s2)cc1,i,0.32
CC(=O)c1c[nH]c(C(=O)NC2CCCCCC2)c1,i,-0.07
O=C(NCCC1CCCCN1S(=O)(=O)c1ccc(F)cc1)C(=O)NCc1ccccn1 (stereo not given),i,-1.1
Cc1cc(C(=O)NC(C)c2ccncc2)cs1 (stereo not given),i,1.93
CN(C)c1cccc2c(/C=N/O)ccc(N(C)C)c12,i,0.13
CCCN(CC(=O)Nc1ccccc1C)C(=O)COc1c(Cl)cccc1Cl,i,0.04
CCCC(CCC)C(=O)O,i,2.29
O=C(COC(=O)c1cc[n+]([O-])cc1)Nc1ccc(SC(F)F)cc1,i,0.41
Cc1ccc(CNc2nc(N)c([N+](=O)[O-])c(Nc3cccc(F)c3)n2)cc1,i,0.5
CCOC(=O)c1c(-c2ccccc2)oc2ccc(O)c(CN3CCOCC3)c12,i,-0.63
CCCc1c(C)nc2ccccc2c1SCCC#N,i,-0.97
Cc1cc(=O)n2[nH]c(C)cc2n1,i,-0.05
CN(C)C(=O)N1CCC(C(=O)NCc2ccccc2Cl)CC1,i,0.4
CCn1c(SCC(=O)N/N=C/C=C\c2ccco2)nc2ccccc21,i,-0.05
O=C(COC(=O)C1CC(=O)N(Cc2ccccc2)C1)c1ccc(Br)cc1 (stereo not given),i,0.8
CC1CC(C)CN(C(=O)CSCC(=O)Nc2nc(-c3cccs3)cs2)C1 (stereo not given),i,-0.46
O=C1c2ccccc2C(=O)N1CCC1=CCCCC1,i,-0.26
CN(C)c1ccc(C(=O)C(=O)c2ccccc2)cc1,i,-1.01
O=C(O)c1ccccc1C(=O)c1ccc2c(c1)N(Cc1ccc(Cl)c(Cl)c1)C(=O)CO2,i,-0.08
CC(=O)c1ccc(OC(C)C)c(CC(C(N)=O)C(N)=O)c1,i,0.02
Cc1csc(SCC(=O)NC(=O)NCc2ccccc2)n1,i,-0.68
NC(=S)N/N=C/c1ccc(Br)o1,i,-0.07
CN(C)S(=O)(=O)NCc1ccc2c(c1)OCO2,i,-0.49
NC(=O)C1CCN(C(=O)CSc2nc3ccccc3o2)CC1,i,0.81
O=C(CSc1nnc(NC(=O)c2c(F)cccc2F)s1)Nc1ccccc1F,i,-0.59
Cc1ccc(N/C=C/C(=O)c2sc(-c3ccccc3)nc2C)cc1,i,0.95
COc1ccc(C2CC(c3cccc(OC)c3OC)n3nnnc3N2)cc1 (stereo not given),i,1.55
CC(=O)c1cc2c(cc1NC(=O)CCNC(=O)c1ccccc1Cl)OCO2,i,-2.64

# Further entries follow.
SMILES,KCNQ2 block,KCNQ2 block baseline
CCc1ccc(-c2cc(C)no2)cc1S(=O)(=O)N1CCC(C)CC1,i,-0.13
CCOC(=O)C1Nc2ccc(Br)cc2C2C=CCC12 (stereo not given),i,-0.32
Cc1ccc(NC(=O)COc2ccc(C3SCCS3)cc2)cc1,i,-0.25
COc1ccccc1NS(=O)(=O)c1ccc(O)c(C(=O)OCC(=O)N2CCc3ccccc32)c1,i,-0.25
COc1ccccc1NC(=O)C1=C(C)Nc2nc3ccccc3n2C1c1cccs1 (stereo not given),i,-0.11
C=CCn1c(SCC(=O)Nc2cc(C)on2)nnc1C1COc2ccccc2O1 (stereo not given),i,-0.72
CN(C)CCNC(=O)/C(=C/c1cccc([N+](=O)[O-])c1)NC(=O)c1ccccc1,i,-0.46
CCOC(=O)C1=C(c2ccccc2)NC(SCC)=C(C#N)C1c1cccnc1 (stereo not given),i,0.99
O=C(c1cccc([N+](=O)[O-])c1)c1ccccn1,i,-2.44
COc1ccc(CCNC(=O)C2CCCN(S(=O)(=O)c3ccc(OC)cc3)C2)cc1 (stereo not given),i,0.48
COCC1CCCN(C(=O)c2ccc3nc(Cc4cccc(Cl)c4)oc3c2)C1 (stereo not given),i,-0.23
CC(C)(C)CN1CCNC(=O)C1CC(=O)NCCc1ccccc1C(F)(F)F (stereo not given),i,0.55
COc1ccc(NC(=O)/C(C#N)=C\c2ccc(N3CCOCC3)o2)cc1,i,12.9
CCN(CC)C(=O)CN1CCN(c2ncccn2)CC1,i,0.12
O=C(c1cc2ncc(Br)cn2n1)N1CCCCC1,i,1.03
O=C(N/N=C/c1ccoc1)c1ccc([N+](=O)[O-])cc1,i,0.18
CC(=O)c1ccc(NC(=O)C(C)Sc2ccccn2)cc1 (stereo not given),i,-0.15
COc1ccc(NC(=O)NC(=O)c2ccccc2)cc1,i,0.18
CCCCN(CC)CCCNC(=O)c1cn(-c2ccc(OC)cc2)c(=O)c2ccccc12,i,-0.82
CC(=C/C(=O)O)/C=C/c1ccc(Cl)o1,i,0.51
Cc1cc(C(=O)Nc2nnc(C(F)(F)F)s2)no1,i,-0.44
Cc1ccc(NC(=O)c2cc(-c3ccc(C)o3)nc3ccccc23)cc1,i,-0.26
COc1ccccc1NC(=O)c1cc(S(=O)(=O)NCc2ccccc2)ccc1F,i,0.04
Cc1cccc(N(CC(=O)NC(C)(C)C)C(=O)CNC(=O)c2cccs2)c1C,i,1.36
O=C(Cn1c(=O)n(CC2CCCO2)c(=O)c2ccccc21)N1CCN(c2ccccc2)CC1 (stereo not given),i,1.9
Cc1cc(C)cc(C(=O)O/N=C(\N)c2ccc(Br)cc2)c1,-6.82*,-0.82*
S=C1SCN(Cc2ccccn2)CN1Cc1ccco1,i,-0.44
CCN(Cc1cc(=O)n2ccsc2n1)Cc1nc2ccccc2c(=O)[nH]1,i,1.19
CC(C)CC(c1nnnn1Cc1ccc(F)cc1)N1CCC(C(N)=O)CC1 (stereo not given),i,-1.19
O=C(CCc1nnc2n(Cc3ccc(Cl)cc3)c(=O)c3ccccc3n12)NCCN1CCCC1,i,-1.48
COc1ccc(/C=C/C(=O)O)cc1S(=O)(=O)N1CCC(C)CC1,i,-1
COc1ccc(-c2nc3scc(-c4ccccc4)n3n2)cc1,i,1.12
CC(C)(C)c1cc(CP(=O)(c2ccccc2)c2ccccc2)cc(C(C)(C)C)c1O,-5.71*,-0.4*
CCN(CC(=O)NC1CCS(=O)(=O)C1)Cc1nc2c(Br)cc(Br)cc2c(=O)[nH]1 (stereo not given),i,2.37
Cc1ccc(S(=O)(=O)N(C)c2ccc(C(=O)Nc3cccc(C)n3)cc2)cc1,i,2.34
CCN(C(=O)CN1C(=O)/C(=C/c2ccc(F)cc2)SC1=S)C1CCS(=O)(=O)C1 (stereo not given),i,-1.22
COc1ccc2ccc(O)c(CN(C)CC(=O)Nc3ccccc3C(F)(F)F)c2c1,i,-0.28
COc1ccc(NC(=O)CN(C)C(=O)CC2CCCC2)cc1,i,1.02
COc1ccc(OC)c(NC(=O)COc2coc(CN3CCc4ccccc43)cc2=O)c1,i,-0.32
CCn1c(SCC(=O)NC2CCCCC2)nnc1-c1ccccc1F,i,-1.98
CCOC(=O)C1=C(O)/C(=C\c2cccc(OC)c2)N=C1C,i,-2.65
CCc1cc(=O)oc2cc(C)cc(OCC(=O)NCc3cccnc3)c12,i,0.8

# Given with values under each structure: entries from further up.
# Below each SMILES – KCNQ2 block, KCNQ2 block baseline
COc1ccc(OC)c(NC(=O)COc2coc(CN3CCc4ccccc43)cc2=O)c1
  i, -0.32
CCn1c(SCC(=O)NC2CCCCC2)nnc1-c1ccccc1F
  i, -1.98
CCOC(=O)C1=C(O)/C(=C\c2cccc(OC)c2)N=C1C
  i, -2.65
CCc1cc(=O)oc2cc(C)cc(OCC(=O)NCc3cccnc3)c12
  i, 0.8
